# Methyltransferases = Primary Screen for Target Class Profiling of Small Molecule Inhibitors of Methyltransferases; purified enzyme, MTase-Glo SAH luminescence; stronger effect = lower value; calls only at 40 µM; hit rate 3.9% among 25,000; AID 1745853, 2022; active = -50% or lower on at least one of six enzymes; inconclusive = the cases between; inactive = as a rule above -30% on all six;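 further: enzymes were COMT GAMT GNMT HNMT NNMT and PNMT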
#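 Each enzyme was reacted with SAM and its substrate, with compounds tested once at 40 uM; SAH formed was read by MTase-Glo luminescence.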
# Calls only; i = inactive; ? = inconclusive; + = active, no number; ! = not active in a repeat. On the % scale 0 is the no-effect control and ±100 the full control effect. A portion of the library; the hit share may differ from the screen's.
# A first look, 2 compounds:
SMILES,Methyltransferases
CCc1ccc(N2C(=O)c3nc4ccccc4n3CC2(C)C(=O)NC2CCCC2)cc1 (stereo not given),i
COCC(c1ccccn1)N(C)Cc1cn(-c2ccccc2)nn1 (stereo not given),i

# The listing, repeating the preview:
SMILES,Methyltransferases
CCc1ccc(N2C(=O)c3nc4ccccc4n3CC2(C)C(=O)NC2CCCC2)cc1 (stereo not given),i
COCC(c1ccccn1)N(C)Cc1cn(-c2ccccc2)nn1 (stereo not given),i
CC(C)Cn1c(=O)c2ccc(C(=O)NC(C)C)cc2n2c(=O)n(CC(=O)NC(C)(C)C)nc12,i
Cc1ccccc1COC1CN(C(=O)C2CCN(C(=O)C3CC3)CC2)C1,i
C=C1C(=O)OC2CC(COC(=O)C(C)C)=C(C(C)CCCOC(C)=O)[C@@H](OC(C)=O)C12 (stereo not given in full),i
CC(C)CNC(=O)c1ccc2c(=O)n(C)c3nn(Cc4cccc(Cl)c4)c(=O)n3c2c1,i
CC1C(=O)CC2C3C(O)CC(C(=O)O)C12CC3(C)C (stereo not given),i
O=C(CCc1nnc2n(Cc3ccccc3Cl)c(=O)c3ccccc3n12)N1CCN(c2ccc(F)cc2)CC1,i
Cc1ccc(CCNC(=O)CCc2nnc3n(Cc4ccccc4)c(=O)c4ccccc4n23)cc1,i
CC(C)[C@@H](c1ccc(C(F)(F)F)cc1CN(Cc1cc(C(F)(F)F)cc(C(F)(F)F)c1)c1nnn(C)n1)N1CCC(C(=O)O)CC1,i
O=C(CN1C(=O)C(c2ccccc2)=NC12CCCCCC2)NCC1CCCO1 (stereo not given),i
CN1CCN([C@H]2CCN(C(=O)CCCc3cn[nH]c3)C[C@H]2CCC(=O)O)CC1,i
COc1ccccc1CNC(=O)CCn1ccc2cc(S(=O)(=O)N3CCC(C)CC3)ccc21,i
CCC1C(=O)NCCN1Cc1cn(-c2cccc(F)c2)nc1-c1ccc(C)o1 (stereo not given),i
COc1cc(=O)n2c(c1C(=O)NCc1ccccc1Cl)CCCC2,i
Cc1ccc(CCNC(=O)Cn2ccc3cc(S(=O)(=O)N4CCCCC4)ccc32)cc1,i
Cn1cc(Nc2cnccc2C(=O)O)c2cccnc21,i
NC(=O)CCCSc1nc(N)nc(-c2c(Cl)cc3c4c(cccc24)COC3)n1,i
CCN1CCN(Cc2ccc(NC(=O)c3ccc(C)c(Oc4ccnc5[nH]ccc45)c3)cc2C(F)(F)F)CC1,?
CC(C)Cn1c(=O)c2ccc(C(=O)NC(C)C)cc2n2c(=O)n(CC(=O)Nc3ccc(Cl)cc3)nc12,i
Cc1cc(C)cc(NC(=O)Cn2nc3n(CCC(C)C)c(=O)c4ccc(C(=O)NC(C)C)cc4n3c2=O)c1,i
CC1(C(=O)NC2CCCCC2)Cn2nc(-c3cccs3)cc2C(=O)N1Cc1ccccc1 (stereo not given),i
CN1C(=O)c2cc(C(=O)NCc3ccc(Cl)cc3)nn2CC1(C)C(=O)NCc1ccccc1 (stereo not given),i
COC(=O)c1ccc(CN2C[C@@H]3C(C)(C)COc4ccc(OC)cc4[C@]3(CO)C2)cc1,i
CCCCn1ccc(N2CCC(c3ccccc3)CC2)c(Cl)c1=O,i

# A section from further up:
SMILES,Methyltransferases
CCc1ccc(N2C(=O)c3nc4ccccc4n3CC2(C)C(=O)NC2CCCC2)cc1 (stereo not given),i
COCC(c1ccccn1)N(C)Cc1cn(-c2ccccc2)nn1 (stereo not given),i

# (next part)
SMILES,Methyltransferases
COc1ccc(-c2nc(-c3ccc(S(=O)(=O)N4CCCCC4)cc3)no2)cc1OC,i
CC(NC(=O)CCc1nnc2n(Cc3ccc(Cl)cc3)c(=O)c3ccccc3n12)c1ccccc1 (stereo not given),i
CC1(C(=O)NC2CCCCC2)Cn2c(ccc2-c2ccco2)C(=O)N1CCc1ccc(Cl)cc1 (stereo not given),i
COC(=O)CNC(=O)N1CCC2(CC1)CC(c1ccccc1)CN(C)C2 (stereo not given),i
CCCN1C(=O)c2cc(C(=O)NCCN3CCCCC3)nn2CC1(C)C(=O)NC1CCCC1 (stereo not given),i
C/C(=C\CCC(C)C1CC(O)C2(C)C3CCC4C(C)(C)C(OC5OCC(O)C(O)C5O)CCC45CC35CC(O)C12C)C(=O)O (stereo not given),i
Cc1cc2c(cc3n2CC(C)(C(=O)NC2CCCCCC2)N(C2CCCC2)C3=O)o1 (stereo not given),i
C[C@@H]1O[C@@H](O[C@H]2CC[C@@]3(C)C(CC[C@]4(C)C3CC=C3[C@@H]5CC(C)(C)CC[C@]5(C(=O)O[C@@H]5O[C@H](CO)[C@@H](O)[C@H](O)[C@H]5O)CC[C@]34C)[C@]2(C)CO)[C@H](O)[C@H](O[C@@H]2O[C@H](CO)[C@@H](O)[C@H](O)[C@H]2O)[C@H]1O (stereo not given in full),i
CCOc1ccc(CN2C(=O)c3cc4ccc(OC)cc4n3CC2(C)C(=O)NC2CCCCC2)cc1 (stereo not given),i
COc1cc2nc(N3CCCC3)nc(NCCCCCN3CCCC3)c2cc1OC,+!
CC(C)Cn1c(=O)c2cc(F)ccc2n2c(SCC(=O)NCc3ccccc3Cl)nnc12,i
CC1(C)CC[C@]2(C(=O)O)CC[C@]3(C)C(=CCC4[C@@]5(C)CC[C@H](O[C@@H]6O[C@H](C(=O)O)[C@@H](O[C@@H]7OC[C@@H](O)[C@H](O)[C@H]7O)[C@H](O)[C@H]6O)C(C)(C)C5CC[C@]43C)C2C1O (stereo not given in full),i
C[N+]1(CC2COC(c3ccccc3)(c3ccccc3)O2)CCCCC1 (stereo not given),i
CSc1ccc(C(=O)N[C@@H]2CCCC[C@@H]2NC(=O)CNC(=O)c2cc(C(F)(F)F)ccc2NC(=O)NC(C)C)cc1,?
COc1ccc2c(c1)CC(NS(=O)(=O)c1ccc(Cl)cc1)CO2 (stereo not given),i
C[C@@H](N)C(=O)N1CCC(C(=O)Nc2cccc(-c3cccc(Cl)c3)c2)CC1,i
Cc1cccc(CCNC(=O)Cn2c(=O)oc3cc(S(=O)(=O)NCc4ccccc4)ccc32)c1,i
O=C(c1ccoc1)N1CCC2(CC1)CC(CO)N(C(=O)c1ccccc1)C2 (stereo not given),i
CC(C)C(NC(=O)c1ccc(O)cc1)C(=O)N1CCCC1C(=O)Nc1c(O)cccc1C(=O)O (stereo not given),i
CC(NC(=O)CCc1nnc2n(CCc3ccccc3)c(=O)c3ccccc3n12)c1ccccc1 (stereo not given),i
Cc1ccc(Cn2c(=O)c3ccccc3n3c(SCc4ccccc4)nnc23)cc1,i
CC(NC1CCC2(CCNCC2)CC1)c1ccc(S(C)(=O)=O)cc1 (stereo not given),i
CCOC(=O)c1cc2n(n1)CC(C)(C(=O)NC1CCCCC1)N(c1ccccc1CC)C2=O (stereo not given),i
Cc1nc(NC(C)c2nc(-c3cccnc3)no2)c2cccnc2n1 (stereo not given),i
Cc1cccc(NC(=O)N2CCn3nnc(CCC(=O)NC4CC4)c3C2)c1,i
SMILES,Methyltransferases
O=C(O)c1cn(C2CC2)c2cc(N3C[C@@H]4C[C@H]3CN4)c(F)cc2c1=O,i
O=C(Nc1cccnc1)c1cnc2c(c1)N(Cc1ccccc1)CCC2,?
CC1CCN(CC2CCCN(C(=O)NC3CCCCC3)CC2)CC1 (stereo not given),i
CC1(C(=O)NC2CCCCC2)Cn2c(ccc2-c2ccco2)C(=O)N1Cc1ccccc1Cl (stereo not given),i
C#CCNC(=O)C1CCc2nnc(C3CCN(C(=O)Nc4ccc(Cl)cc4)CC3)n21 (stereo not given),i
N#Cc1c(C2CCNCC2)cc(-c2c(O)cccc2OCC2CC2)nc1N,+
Cc1cc(C)nc(SCC(=O)Nc2ncc(Cc3cccc4ccccc34)s2)n1,i
C[C@@H]1CC[C@]2(C(=O)O)CC[C@]3(C)C(=CCC4[C@@]5(C)C[C@@H](O)[C@@H](O)C(C)(C)C5CC[C@]43C)C2[C@]1(C)O (stereo not given in full),i
CN1C(=O)c2cc(C(=O)NCc3cccc(Cl)c3)nn2CC1(C)C(=O)NC1CCCCC1 (stereo not given),i
O=C(Nc1ccc(F)c(C(F)(F)F)c1)Nc1nnc(-c2ccncc2)s1,?
Cc1ccc(NC(=O)CSc2nnc3n(CC(C)C)c(=O)c4ccccc4n23)c(Cl)c1,i
CCN1CCN(c2nc3c(-c4cccc(C)c4)nnn3c3ccc(Cl)cc23)CC1,i
Nc1nc(Nc2ccccc2)nc2c1ncn2[C@@H]1O[C@H](CO)[C@@H](O)[C@H]1O,i
O=C(O)CCc1cc2n(n1)CCCN(C(=O)c1cc3c([nH]c1=O)CCC3)C2,i
Cn1nccc1C(=O)N1CCC(N2CC(OCC3CC3)C23CCOCC3)CC1 (stereo not given),i
CC(C)(O)/C=C/C(=O)[C@](C)(O)[C@H]1[C@H](O)C[C@@]2(C)[C@@H]3CC=C4[C@@H](C=C(O[C@@H]5O[C@H](CO)[C@@H](O)[C@H](O)[C@H]5O)C(=O)C4(C)C)[C@]3(C)C(=O)C[C@]12C,i
COc1ccc(CCNC(=O)c2cc3n(n2)CC(C)(C(=O)NCc2ccc(C)cc2)N(C)C3=O)c(OC)c1 (stereo not given),i
COCCN1C(=O)c2cc3ccc(OC)cc3n2CC1(C)C(=O)NC1CCCCCC1 (stereo not given),i
OCCC1CCN(c2ccc(-c3nc(CCCc4ccccc4)no3)cn2)CC1,i
Cc1ccccc1CN1C[C@H](O)C[C@H]1c1nc(C2CC2)no1,i
CCOc1ccccc1CN1C(=O)c2cc3occc3n2CC1(C)C(=O)NC1CCCCC1 (stereo not given),i
COc1ccc(NC(=O)CCc2nnc3n(CCCOC(C)C)c(=O)c4ccccc4n23)cc1,i
c1ccc2c(c1)CC(N1CCN(c3cccc4c3OCCO4)CC1)C2,i
CC(=O)Oc1cc2c(s1)CCN(C(C(=O)C1CC1)c1ccccc1F)C2 (stereo not given),?
COCCCNC(=O)c1cc2n(n1)CC(C)(C(=O)NCc1ccccc1)N(C)C2=O (stereo not given),i

# Given as labelled records: part of the list above
CCN1CCN(c2nc3c(-c4cccc(C)c4)nnn3c3ccc(Cl)cc23)CC1
  Methyltransferases = i

Nc1nc(Nc2ccccc2)nc2c1ncn2[C@@H]1O[C@H](CO)[C@@H](O)[C@H]1O
  Methyltransferases = i

O=C(O)CCc1cc2n(n1)CCCN(C(=O)c1cc3c([nH]c1=O)CCC3)C2
  Methyltransferases = i

Cn1nccc1C(=O)N1CCC(N2CC(OCC3CC3)C23CCOCC3)CC1 (stereo not given)
  Methyltransferases = i

# Additional results
SMILES,Methyltransferases
Cc1cc(C(=O)N[C@H]2[C@H](O)[C@H](O)C[C@@H]2c2cccnc2)n(C)n1,i
Cc1noc(C)c1-c1cc2c(c(-c3ccccc3Oc3ccccc3)c1)C(=O)N(C)C2,i
O=C(Cn1c(=O)oc2cc(S(=O)(=O)N3CCCC3)ccc21)NC1CCN(Cc2ccccc2)CC1,i
CCCNC(=O)N(C1CCOCC1)C1CCN(C(=O)CCC(=O)c2ccc(F)cc2)CC1,i
Cn1c(=O)c2ccc(C(=O)NC3CCCC3)cc2n2c(=O)n(CC(=O)Nc3cccc(Cl)c3)nc12,i
Clc1cccc(-c2nnn3c2nc(NCc2ccc4c(c2)OCO4)c2ccccc23)c1,i
CN1CCCC2(CCN(C(=O)CCc3ccc(Cl)cc3)C2)C1=O (stereo not given),i
COc1ccc(Nc2ccc3c(n2)CN(Cc2ccccc2C)C(=O)CO3)cc1,i
CC1(C(=O)NCc2ccc(Cl)cc2)Cn2c(ccc2-c2ccco2)C(=O)N1Cc1ccccc1 (stereo not given),i
COc1nc2nc(CCc3ccccc3)n(C)c2cc1-c1ccnn1C,?
CCOc1ccccc1CN1C(=O)c2nc3ccccc3n2CC1(C)C(=O)NC1CCCCC1 (stereo not given),i
Cc1cnc(CC2CCN(S(=O)(=O)c3ccc4c(c3)CCC4)CC2)n1CC1CC1,?
Cc1cc(C)c(NC(=O)Cn2c(=O)c3ccc(Cl)cc3n3nncc23)c(C)c1,i
Cc1cc(C)cc(NC(=O)Cn2nc3n(CCCOC(C)C)c(=O)c4ccccc4n3c2=O)c1,i
Cn1c(=O)n(C)c2cc(S(=O)(=O)Nc3ccc(OCc4ccccc4)cc3)ccc21,i
CC(=O)Nc1nc2c(Oc3cc(-c4ccc(C(F)(F)F)cc4)ncn3)cccc2s1,?
COc1ccc(-c2n[nH]n3c2nc(=O)c2ccc(C(=O)NCc4ccc(C)cc4)cc23)cc1,i
C[C@@]12CO[C@@H](Cc3ccccc3)O[C@@H]1CC[C@]1(C)C2CC[C@@H](O)[C@H]1CC(=O)NCc1cc(F)cc(F)c1 (stereo not given in full),i
CCOc1ccc(CCNS(=O)(=O)c2ccc3[nH]c4c(c3c2)CCCC4)cc1OCC,i
CCOc1ccc(C(=O)N2CCCC3(C2)NC(=O)N(Cc2cc(C)ccc2C)C3=O)cc1 (stereo not given),i
O=C(Cn1cccc1-c1nc(-c2ccccc2)no1)N1CCc2ccccc21,i
C[C@@H]1O[C@@H](OC[C@H]2O[C@@H](Oc3cc(O)cc4c3C(=O)C(O)(Cc3ccc(O)cc3)O4)[C@H](O)[C@@H](O)[C@@H]2O)[C@H](O)[C@H](O)[C@H]1O (stereo not given in full),i
COc1ccc(C[C@@H]2NC(=O)[C@@H]3C[C@@H](NC(=O)Nc4cccc(SC)c4)CCN3C2=O)cc1,i
O=C(C1CCCC1)N1CCC(n2cnnc2C2CC2)CC1,i
COc1cccc(S(=O)(=O)N2CCC(n3c(C)cnc3C3CCOCC3)CC2)c1,i
COc1ccc(-c2n[nH]n3c2nc(=O)c2ccc(C(=O)NCCC(C)C)cc23)cc1,i
Cc1ccc(N2C(=O)N[C@@H]3CCN(S(=O)(=O)c4ccc(Cl)cc4)[C@@H]3C2=O)cc1,i

# Screening results from PubChem.
